Source: PubChem (National Center for Advancing Translational Sciences (NCATS))
TRPML1 blocker – blocks the human TRPML1 channel; Q9GZU1; TRPML1-inducible cells, Ca2+ dye fluorescence, FDSS; hits give low values; inhibition of EC80 agonist-evoked calcium signal; activity change, negative = inhibition, % (concentration not given with the values); 390,000 tested, 0.02% active; AID 624415; in the data active means activity change below about -50%; inconclusive means about -30% to -50%; inactive means above about -30%;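 further: stimulus is agonist 54-4 at its EC80 concentration; on the % scale 0 is the no-effect control and ±100 the full control effect; compound concentration not given in the record; the text of the record puts the active cut at -80%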
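Tet-induced TRPML1-DL cells loaded with Ca8 no-wash calcium dye were read kinetically on FDSS. Compound addition was followed by EC80 agonist 54-4 (4 uM final); inhibition was read over 110 s.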
TRPML1 ag – human mucolipin-1 channel agonism; Q9GZU1; TRPML1-expressing cells, Ca2+ dye fluorescence, FDSS; host cell line not named in the record; reference of the full effect not given here; activation, % (no concentration beside the values); 410,000 tested, 0.12% active; in the data active = activation above about 50%; inconclusive = about 30% to 50%; inactive = below about 30%; further: 0% is about no effect; the text of the record puts the active cut at 80%
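In this qHTS format, compounds were pin-transferred onto Ca8-dye-loaded TRPML1-DL cells induced with Tet overnight, and intracellular Ca2+ fluorescence was recorded kinetically for 110 s after a 10 s baseline. A subsequent 4uM final 54-4 (EC80) addition followed by a second 110 s read served as the antagonist phase.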
CtBP-E1A blk – inhibitors of CtBP/E1A interaction. 340,000 tested, 0.49% active. activity change, % (test concentration not listed). AID 651724. AlphaScreen GST-E1A/His-CtBP binding, 1536-well; hits give low values; control for the full effect not named in the record; in the data active means activity change below about -65%; inconclusive means about -30% to -65%; inactive means above about -30%; further: on the % scale 0 is the no-effect control and ±100 the full control effect; compound concentration not given in the record
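Homogeneous bead-based format: GST-tagged E1A captured on glutathione donor beads, His-tagged CtBP on nickel acceptor beads; compounds precede bead addition by 2 h at 37 °C.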
TRPV1 PAM – human TRPV1 potentiation; TRPV1-expressing cells, Fluo-8 calcium influx, capsaicin EC20 potentiation; host cell line not named in the record; control for the full effect not named in the record; 320,000 tested, 0.02% active; Q8NER1; potentiation, % at 8.33 µM; AID 540277; active means potentiation above 80%; inconclusive means 30% to 80%; inactive means below 30%; further: 0% is about no effect
Target sequence (Q8NER1 whole entry, looked up): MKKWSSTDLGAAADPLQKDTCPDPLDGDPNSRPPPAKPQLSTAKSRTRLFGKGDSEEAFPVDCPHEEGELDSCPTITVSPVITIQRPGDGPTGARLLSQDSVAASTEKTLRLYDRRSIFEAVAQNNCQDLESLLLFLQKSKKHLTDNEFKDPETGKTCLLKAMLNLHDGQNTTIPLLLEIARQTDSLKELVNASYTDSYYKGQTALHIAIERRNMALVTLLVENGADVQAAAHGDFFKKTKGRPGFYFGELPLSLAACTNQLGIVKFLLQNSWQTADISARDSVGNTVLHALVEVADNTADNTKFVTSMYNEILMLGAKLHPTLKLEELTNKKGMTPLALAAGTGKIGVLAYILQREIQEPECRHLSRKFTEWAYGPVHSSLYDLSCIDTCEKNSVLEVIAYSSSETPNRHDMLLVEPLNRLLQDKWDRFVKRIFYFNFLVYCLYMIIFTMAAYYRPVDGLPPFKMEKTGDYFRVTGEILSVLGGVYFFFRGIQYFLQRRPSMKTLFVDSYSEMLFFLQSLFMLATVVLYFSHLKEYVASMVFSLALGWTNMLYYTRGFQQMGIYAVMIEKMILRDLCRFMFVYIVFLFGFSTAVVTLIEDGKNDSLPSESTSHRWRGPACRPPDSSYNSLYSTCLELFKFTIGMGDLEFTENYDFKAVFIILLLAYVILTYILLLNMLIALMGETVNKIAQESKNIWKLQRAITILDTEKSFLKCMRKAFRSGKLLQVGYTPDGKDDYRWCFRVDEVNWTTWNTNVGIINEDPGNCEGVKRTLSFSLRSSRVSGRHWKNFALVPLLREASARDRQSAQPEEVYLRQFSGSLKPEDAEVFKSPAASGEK
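TRPV1-expressing cells were cultured overnight at 35.5C and loaded with Fluo-8 calcium dye for 40 to 90 min at room temperature. After a 10 s baseline, compound was added and calcium influx was read kinetically for 3 min (ex 480/em 520 nm).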
D2 PAM – potentiates the human D2 dopamine receptor allosterically | DiscoveRx D2 beta-arrestin cells, luminescence, 90 min; 100% = 57 uM dopamine signal | AID 624464 | potentiation, % (no concentration beside the values) | 360,000 tested, 0.23% active; active = potentiation of 50% or more; inconclusive = 30% to 50%; inactive = 30% or less;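 further: compound concentration not given in the record; tested on top of an EC20 dose of dopamine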
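D2 cells co-treated with compound plus 50 nM dopamine (EC20) for 90 min at 37 deg C to detect potentiation. Beta-arrestin recruitment was read as enzyme-fragment luminescence after 1 h at ambient temperature. Full response was set by 57 uM dopamine.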
Six1-Eya2 inh – inhibitors of human Six1/Eya2 interaction; activity change, % (no concentration beside the values); Q15475+O00167; 360,000 tested, 0.56% active; AlphaScreen GST-Six1/His-Eya2 binding, biochemical; hits give low values; control for the full effect not named in the record; in the data active = activity change below about -65%; inconclusive = about -30% to -65%; inactive = above about -30%; further: on the % scale 0 is the no-effect control and ±100 the full control effect; compound concentration not given in the record
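AlphaScreen luminescence read after one hour at 37 °C in darkness. Pin-transferred compounds met GST-Six1 and His-Eya2 protein (5X stock 250 nM/500 nM) plus glutathione donor and Ni-chelate acceptor beads (5X, 50 ug/mL).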
An asterisk follows results filed as active; . = not tested or not shown; & = joins results of further samples.

SMILES	TRPML1 blocker	TRPML1 ag	CtBP-E1A blk	TRPV1 PAM	D2 PAM	Six1-Eya2 inh
O=C(NCc1cccnc1)c1csc([C@@H]2O[C@H](CO)[C@H](O)[C@H](O)[C@H]2O)n1	3	0.3	7	.	-10	-2
Cc1ccc2cc(CN(Cc3ccc4c(c3)OCO4)Cc3nnnn3Cc3ccco3)c(=O)[nH]c2c1	8	0.2	-16	12	-40	-22
COC(=O)c1ccc(-c2noc(CN(Cc3ccccn3)CC3CCCO3)n2)cc1 (centres undefined)	7	0.7	4	-13	-3	-2
Cc1ccc(C)c(NC(=O)CCN2CCN(CCO)CC2)c1	-12	0.0	-3	3	-3	9
CC(C)CCN1C(=O)c2ccc(C(=O)Nc3ccccn3)cc2C1=O	1	-0.7	0	-9	-11	0
CCOc1ncccc1C(=O)Nc1ccc(C(=O)Nc2ccc(OC)cc2)cc1	6	-0.7	4	-7	-5	-2
COc1ccc(CNC(=O)CSc2n[nH]c(N)n2)cc1	1	0.9	7	9	0	3
CC(=O)OCC1=C(C(=O)O)N2C(=O)C(NC(=O)COc3ccc(F)cc3)C2SC1 (centres undefined)	-19	0.2	-16	-1	0	-9
COc1ncccc1C(=O)N1CCCC(N2CCN(c3cccc(Cl)c3)CC2)C1 (centres undefined)	6	0.9	-6	3	-39	-21
C=CCC1(C(=O)N(C)Cc2ccccc2)CCN(C(=O)OC(C)(C)C)CC1	49	1.4	-5	.	-12	-6
Cc1cc(C)c2nc(-c3ccccn3)cc(C(=O)Nc3ccc(S(=O)(=O)Nc4onc(C)c4C)cc3)c2c1	9	-0.6	-7	-8	2	7
CC(C)C(NC(=O)c1ccc(Cl)c([N+](=O)[O-])c1)C(=O)NCc1ccccn1 (centres undefined)	-16	-0.2	3	.	5	6
CSc1nsc(SCC(=O)Nc2ccc(F)cc2F)n1	-3	0.4	7	1	-2	-1
Cc1ccccc1Sc1ccc(N)cn1	-1	0.6	.	.	3	-4
Cc1ccc(-c2nc3ccccc3c(=O)n2CCCN2CCOCC2)cc1	6	-0.5	-5	6	-19	-11
CCOC(=O)c1cc(NC(=O)Nc2nccs2)c(C)nc1C	-4	0.3	-18	11	-1	-12
CCn1ccnc1CN(C)Cc1cn(C)nc1-c1ccccc1F	4	-0.5	-10	4	-2	2
CCCn1cnc2c(N)c(C)c(C)cc21	11	0.9	-1	-2	-5	-3
COC(CNC(=O)C1CCN(C(=O)c2cc3oc(C)cc3n2Cc2c(F)cccc2Cl)CC1)OC	-26	0.2	1	11	-3	-6
Cc1ccc(S(=O)(=O)N2CCN(C(=O)/C=C/c3ccco3)CC2)cc1	-18	-0.1	6	-7	-8	2
Cc1cc(C)c(S(=O)(=O)c2ccccc2C)c(OCCO)n1	20	-0.8	5	19	0	7
COc1cc(S(=O)(=O)N2CCN(c3ccccc3)CC2)ccc1F	-4	0.2	1	2	-3	-6
COc1cccc(S(=O)(=O)N(C)C[C@@H]2OCc3cn(nn3)CCCC(=O)N([C@@H](C)CO)C[C@H]2C)c1	-16	-0.3	-17	.	-16	35
Cc1ccc(NC(=O)CC2SC3=NCCCN3C2=O)c(C)c1 (centres undefined)	36	9.6	-2	14	-21	-12
O=C(COc1ccccc1)Nc1nccs1	5	-0.6	9	3	7	-1

Brought forward from above: three entries, followed by the next part.
SMILES	TRPML1 blocker	TRPML1 ag	CtBP-E1A blk	TRPV1 PAM	D2 PAM	Six1-Eya2 inh
COc1cccc(S(=O)(=O)N(C)C[C@@H]2OCc3cn(nn3)CCCC(=O)N([C@@H](C)CO)C[C@H]2C)c1	-16	-0.3	-17	.	-16	35
Cc1ccc(NC(=O)CC2SC3=NCCCN3C2=O)c(C)c1 (centres undefined)	36	9.6	-2	14	-21	-12
O=C(COc1ccccc1)Nc1nccs1	5	-0.6	9	3	7	-1
COC(=O)CCN(C(=O)c1ccc2c(c1)OCO2)c1ccccn1	-8	0.1	10	-4	0	14
O=C(NC(=S)NC1CCCCCC1)c1cncc(Br)c1	-4	1.5	0	-10	-6	-2
CCOc1ccc(S(=O)(=O)NCc2ccncc2)cc1	-7	-1.4	7	2	11	0
COc1ccc(C(=O)Nc2ccc(O)c3c(=O)cc(-c4cccc(Cl)c4)oc23)cc1	-11	-0.2	0	-2	-8	-4
O=C(NCCc1cccs1)C1CCC(=O)N(CCc2cccc(F)c2)C1 (centres undefined)	-11	-1.1	2	0	-5	4
CCN(C(=O)COC(=O)c1ccccc1Oc1ccccc1)c1c(N)n(Cc2ccccc2)c(=O)[nH]c1=O	-10	1.6	-23	.	-18	3
Nn1c(SCCOc2ccc(Cl)cc2)nnc1-c1cccnc1	32	-0.2	-6	5	-20	-2
Cc1occc1-c1nnc(SCC(=O)N(C)CCC#N)n1N	-19	-0.2	1	6	-2	11
O=C([O-])c1ccccc1-[n+]1c(-c2ccccc2)cc(-c2ccccc2)cc1-c1ccccc1	8	-0.3	0	-34	-20	-8
O=C(NNC(=O)c1ccccc1[N+](=O)[O-])Nc1ccc(Cl)cc1	-2	-0.5	1	14	1	5
O=C1SC(SC(=Nc2ccccc2)Nc2ccccc2)C(=O)N1c1ccccc1 (centres undefined)	10&15	0.8&0.2	-14&4	0	-6&8	-15&-5
Cc1ccc(OCCC(=O)NNC(=O)c2nn(C)c(=O)c3ccccc23)cc1	29	2.2	-3	0	1	2
COc1ccc2c(CC(=O)NC3CCCc4ccccc43)coc2c1 (centres undefined)	5	-0.1	1	3	-2	11
CCCCOc1ccc(S(=O)(=O)NC(=O)C2(C)CCN2C(=O)Cc2cccs2)cc1 (centres undefined)	.	-0.7	3	.	0	-2
COC(=O)[C@@]12CCCCN1[C@H](c1ccc(-c3cccc(Cl)c3)cc1)[C@H]1C(=O)N(C)C(=O)[C@H]12	67	0.5	1	13	-4	3
Cc1ccc(NC(=O)CS(=O)(=O)c2c[nH]c3ccccc23)c(C)c1	6	-0.8	6	-19	21	0
COC(=O)c1ccc(N(CC(=O)NC2CCCCC2)C(=O)CNC(=O)c2ccco2)cc1	16	1.3	2	13	-4	-6
CC(=O)Oc1ccc(-c2csc(Nc3cccnc3)n2)cc1	2	2.7	8	5	-5	15
COc1cc(C(=O)NCCNC(=O)c2ccco2)cc(OC)c1OC	-8	2.2	-7	.	-5	14
O=C(/C=C/c1cccc(Br)c1)Nc1nn[nH]n1	-1	-0.3	-3	-5	-3	-3
Cc1ccc(S(=O)(=O)CCC(=O)Nc2cccc(C)c2)cc1	65	0.1	6	4	-11	1
O=S(=O)(c1cccc(F)c1)N1CCN(C(=S)NCc2ccccc2)CC1	18	-0.4	0	-13	-1	6
COc1ccc2c(-c3ccc(S(N)(=O)=O)cc3)c(-c3ccc(S(C)(=O)=O)cc3)sc2c1	-1	-0.3	1	.	.	-1
CCOCCCNS(=O)(=O)c1cc2[nH]c3c(c2cc1C)C(=O)CC(C)(C)C3	-9	0.7	5	15	5	-3
Cc1nnc(SCC(=O)Nc2nsc(-c3ccccc3)n2)s1	7	0.6	10	-19	-10	-4
(further entries)
SMILES	TRPML1 blocker	TRPML1 ag	CtBP-E1A blk	TRPV1 PAM	D2 PAM	Six1-Eya2 inh
CCN(C(=O)COC(=O)c1cc(NS(=O)(=O)c2ccc(Cl)c([N+](=O)[O-])c2)ccc1O)C1CCCCC1	11	0.1	-6	-2	-26	-21
O=C(Cc1ccsc1)NNC(=O)c1ccccc1Cl	12	0.2	-8	14	7	4
COc1ccc(C2CC(c3cccs3)=NN2C(=O)CSc2nc(=O)n3cc(C)ccc3n2)cc1 (centres undefined)	-5	2.3	-4	-15	-15	-21
CCN1CCc2c(OCC(=O)N3CCCCC3)cccc2C1=O	2	0.5	5	-4	-1	6
CCn1cnc2c1c(=O)n(Cc1nnc3n1-c1ccccc1SC3)c(=O)n2Cc1ccccc1	9	0.5	-1&5	3	0	10
Cc1ccc(C)c(NC(=O)CN(C)C(=O)C2CCN(S(=O)(=O)c3ccc4c(c3)OCCO4)CC2)c1	10	-0.5	-3	6	16	-8
COc1cccc(NC(=S)N2CCN(C)CC2)c1	-9	-0.1	-9	9	-6	2
O=C1CCc2cc(S(=O)(=O)NCc3ccc(F)cc3)cc3c2N1CCC3	-4	4.1	-16	-1	-1	5
O=C1CN(C(=O)COC(=O)c2ccc(N3CCCCCC3)c([N+](=O)[O-])c2)c2ccccc2N1	-1	1.9	-24	4	-7	-21
O=C(c1c[nH]c2ccc(S(=O)(=O)N3CCOCC3)cc2c1=O)N1CCN(c2ccccn2)CC1	16	-0.7	-5	6	-3	-6
O=C(CC(c1ccccc1)c1ccccc1)N1CCN(c2ccccn2)CC1	0	-0.4	2	7	-5	1
C=CCN(Cc1cc(OC)ccc1OC)C(=O)c1cc2ccc(OC)cc2[nH]1	.	.	-1	-4	-2	-14
O=C(Nc1ccnn1C1CCN(C(=O)c2cccc(C(F)(F)F)c2)CC1)C1CC1	-2	0.5	2	-1	-9	3
CCOC(=O)c1cncc(C#CCO)c1	13	0.3	2	6	-12	6
O=C(CN1CCC(n2nnc3cc(C(F)(F)F)ccc32)CC1)Nc1ccc2c(c1)OCCO2	2	1.1	-1	5	-2	-4
COc1ccccc1CN(CC(=O)NCc1ccc(F)cc1)C(=O)c1csnn1	-1	-0.1	5	6	1	6
S=C(NCC1CCCO1)Nc1ccc(Nc2ccccc2)cc1 (centres undefined)	3	1.4	-18	6	-9	-3
CCN(C(=O)COC(=O)c1cc([N+](=O)[O-])ccc1N1CCOCC1)C1CCS(=O)(=O)C1 (centres undefined)	-7	-0.1	3	6	-12	6
O=C(NCCO)N1c2ccccc2Sc2ccccc21	-14	0.0	-11	-4	-3	1
Cc1nn(Cc2ccc(Cl)cc2)c(C)c1NC(=O)c1cc(C(C)C)on1	24	2.9	-1	1	-3	0
COc1cc(CN2CCc3ccccc3C2)cc([N+](=O)[O-])c1O	.	.	.	-2	-44	3
O=C(CSc1ccccc1F)NC(=O)NC1CCCC1	9	1.7	4	.	-6	3
CCN=C1SC(C(=O)NCCc2ccccc2)CC(=O)N1CC (centres undefined)	14	-0.6	6	-5	-12	3
CC1CCCC1/C(=N/O)c1ccccc1 (centres undefined)	21	3.3	.	3	-7	3
COC(=O)c1c(-c2ccc(C)cc2)csc1NC(=S)NC(=O)c1cc(OC)cc(OC)c1	-13	-0.3	-15	-3	-7	-2
COc1ccc(NC(=O)NC2(C(=O)N3CCN4CCCC4C3)CCCCC2)cc1 (centres undefined)	5	-1.4	0	-4	-14	8

Pulled by compound from the list above, 6 records:
SMILES	TRPML1 blocker	TRPML1 ag	CtBP-E1A blk	TRPV1 PAM	D2 PAM	Six1-Eya2 inh
COc1cc(CN2CCc3ccccc3C2)cc([N+](=O)[O-])c1O	.	.	.	-2	-44	3
CCN(C(=O)COC(=O)c1cc(NS(=O)(=O)c2ccc(Cl)c([N+](=O)[O-])c2)ccc1O)C1CCCCC1	11	0.1	-6	-2	-26	-21
CCOC(=O)c1cncc(C#CCO)c1	13	0.3	2	6	-12	6
Cc1ccc(C)c(NC(=O)CN(C)C(=O)C2CCN(S(=O)(=O)c3ccc4c(c3)OCCO4)CC2)c1	10	-0.5	-3	6	16	-8
O=C(CSc1ccccc1F)NC(=O)NC1CCCC1	9	1.7	4	.	-6	3
O=C(Nc1ccnn1C1CCN(C(=O)c2cccc(C(F)(F)F)c2)CC1)C1CC1	-2	0.5	2	-1	-9	3

Rows were taken by chance (roughly 0.95% active in at least one column).
